# Compound activity: PubChem, National Center for Advancing Translational Sciences (NCATS)
# VACV mCherry inh: qHTS for Stage-Specific Inhibitors of Vaccinia Orthopoxvirus: mCherry Reporter Primary qHTS | Vaccinia virus mCherry reporter infection, fluorescence; about a quarter of the inactives have no number | Potency, µM (highest dose often 36.5 µM), inactives show top-dose activity change, negative = inhibition, usual class: inhibitors | 0.63% of 310,000 active; active = well fitted inhibition curve with a large enough effect; inconclusive = small, poorly fitted or top-dose-only effect; inactive = no such curve, though single readings can be large or run the other way; tested in A549 cells; also: nearly all actives have a fitted effect of over 35% in size; inactives centre near -10
# VACV Venus inh: qHTS for Stage-Specific Inhibitors of Vaccinia Orthopoxvirus: Venus Reporter Primary qHTS; Vaccinia virus Venus reporter expression, fluorescence; Potency, µM (titrated, usually from 36.5 µM), for inactives: at the top dose activity change, negative = inhibition, actives largely listed as inhibitors; 0.46% of 330,000 active; AID 720580, 2013; active means well fitted inhibition curve with a large enough effect; inconclusive means small, poorly fitted or top-dose-only effect; inactive means no such curve, though single readings can be large or run the other way; tested in A549 cells; also: nearly all actives have a fitted effect of over 30% in size; inactives centre near -10
# The depositor's hits bear a star; i = inactive; u = inconclusive; x = not tested or not shown; & = joins results of further samples; [ ] = dose if it differs, or a comment. % is scaled to controls: 0 for no effect and ±100 for the full control effect; potency is read from the fitted curve at half-maximal effect.
# Start of the data: the first three compounds (preview)
# Under each structure: VACV mCherry inh, VACV Venus inh
1	Cc1ccc(C)c2c1NC(C(=O)O)C1CC=CC21 (centres undefined)
  2.9%, -6.4%
2	Cc1ccc(CNC(=O)CCc2c(C)nc3c4c(C)cc(C)nc4nn3c2C)cc1
  -7.6%, -8.2%
3	CC(C)Cc1nc(Nc2ccccc2C#N)c2nnn(Cc3ccccc3)c2n1
  i, -2.9%

# The list itself, from the first entry:
# Under each structure: VACV mCherry inh, VACV Venus inh
1	Cc1ccc(C)c2c1NC(C(=O)O)C1CC=CC21 (centres undefined)
  2.9%, -6.4%
2	Cc1ccc(CNC(=O)CCc2c(C)nc3c4c(C)cc(C)nc4nn3c2C)cc1
  -7.6%, -8.2%
3	CC(C)Cc1nc(Nc2ccccc2C#N)c2nnn(Cc3ccccc3)c2n1
  i, -2.9%
4	Cc1cc(C)n2nc(SCCOc3ccccc3)nc2n1
  i, -1.6%
5	COCCNC(=O)CCCn1c(=O)c2ccccc2n(Cc2cccc([N+](=O)[O-])c2)c1=O
  -13.4%, -0.6%
6	COc1ccc2c(c1)C1(C(=O)O)CC=CCC1(C(=O)O)C2 (centres undefined)
  i, -13.1%
7	CC(C)(C)NC(=O)NC(=O)COC(=O)c1cc(=O)[nH]c2ccccc12
  -17.3%, -5.4%
8	COc1ccccc1/C=C/C=C(\C#N)C(=O)NC(C)c1ccccc1 (centres undefined)
  u, -21.5%
9	COc1ccc(CNC(=O)CN(Cc2cccs2)C(=O)CCC(=O)Nc2ccccn2)cc1
  -15.2%, -1.9%
10	Cc1cc(NCCO)nc(N2CCOCC2)n1
  x, -5.5%
11	CCCCCN(C(=O)CCC(=O)OCC(=O)c1ccc(C(C)CC)cc1)c1c(N)n(CCCC)c(=O)[nH]c1=O (centres undefined)
  u, u
12	COC(=O)c1ccc(NC(=O)c2c(-c3ccccc3)c(-c3ccccc3)nn(C)c2=O)cc1
  -9.6%, -12.2%
13	COc1ccc(S(=O)(=O)N(C)C)cc1NCC(=O)Nc1cccc2ccccc12
  -14.2%, -14.4%
14	OCCN1CCOCCN(CCO)CCN(CCO)CC1
  x, 7.4%
15	COCCNc1nc(Nc2ccc(C)cc2C)c2sccc2n1
  -10.8%, -28.6%

# 3 entries already listed, ordered by count of non-hydrogen atoms, highest first:
# Under each structure: VACV mCherry inh, VACV Venus inh
2	Cc1ccc(CNC(=O)CCc2c(C)nc3c4c(C)cc(C)nc4nn3c2C)cc1
  -7.6%, -8.2%
3	CC(C)Cc1nc(Nc2ccccc2C#N)c2nnn(Cc3ccccc3)c2n1
  i, -2.9%
7	CC(C)(C)NC(=O)NC(=O)COC(=O)c1cc(=O)[nH]c2ccccc12
  -17.3%, -5.4%

# Following part:
# Under each structure: VACV mCherry inh, VACV Venus inh
16	Cc1cc2c(c(=O)n1Cc1cccnc1)C(c1ccc(F)cc1)C(C#N)=C(N)O2 (centres undefined)
  x, -26.2%
17	COc1ccc(-c2noc(N3CCC(C(=O)Nc4ccccc4Cl)CC3)n2)cc1
  i, -28.5%
18	COc1ccccc1C(=O)NC(=Nc1nc2ccccc2o1)NC(=O)c1ccccc1OC
  -11.3%, -2.0%
19	COC(=O)COc1ccc(S(=O)(=O)NCc2cccnc2)cc1
  -14.9%, -9.9%
20	O=C(c1ccc(F)cc1)N1CCC(c2ccccc2)C1 (centres undefined)
  i, -20.4%
21	CCc1ccc(CN(C)C(=O)CCc2nc3ccccc3n(-c3ccc(OC)cc3)c2=O)cc1
  u, u
22	Cc1sc2ncnc(Oc3ccc(-n4ccnc4)cc3)c2c1C
  i, -29.9%
23	CCC(C)n1c(O)c(/C=N/N2CCOCC2)c(=O)[nH]c1=S (centres undefined)
  -12.2%, -12.4%
24	CC[C@]12c3[nH]c4ccc(OC)cc4c3CCN1C(=O)C(CC(=O)NCCCOC)C[C@@H]2C(=O)N1CCN(C(=O)c2ccco2)CC1 (some centres undefined)
  -4.3%, -5.7%
25	COc1ccc(-c2cn(-c3ccc(Cl)cc3)c3[n+]2CCCCC3)cc1
  i, -15.9%
26	Cc1ccc2c(c1)NC(=O)C(CC(=O)NCCN(CC(C)C)CC(C)C)O2 (centres undefined)
  -5.1%, -11.4%
27	COc1ccc(C(CC(=O)NCc2ccccc2)Sc2n[nH]c(-c3ccc(Cl)cc3)n2)cc1 (centres undefined)
  -27.2%, u
28	CN(C)S(=O)(=O)c1ccc2[nH]cc(/C=C/c3nc4ccccc4c(=O)n3-c3ccccc3)c2c1
  -14.6%, u
29	CC(NC(=O)c1cccc(C(F)(F)F)c1)C(c1ccccc1)N1CCOCC1 (centres undefined)
  -11.6%, -18.6%
30	CCOc1ccccc1C1C(C(=O)Nc2ccccc2)=C(C)Nc2c(C(=O)Nc3ccc(F)cc3)cnn21 (centres undefined)
  -3.1%, -12.5%
31	O=C1C=C(Nc2ccc(O)cc2)C(=O)c2ccccc21
  u, u
32	CCCCn1cnc2c(SCc3ccccc3)nc(N)nc21
  -12.1%, 6.9%
33	COc1ccc(CN2C(=O)C(NC(=O)c3ccccc3OC)(C(F)(F)F)N=C2c2ccccc2)cc1 (centres undefined)
  -5.8%, -12.2%
34	O=[n+]1c2c(n([O-])c3cc(F)c(N4CCCC4)cc31)CCCC2
  -14.8%, 69.7%
35	O=C(N/N=C/c1cccc(Br)c1)c1ccc(N2CCCC2=O)cc1
  -9.1%, -16.7%
36	CCOC(=O)N1CCN(C(=O)CSc2nnc(C3COc4ccccc4O3)o2)CC1 (centres undefined)
  -4.7%, -5.2%
37	COc1cccc(CN2CCOc3ccc(CN4C[C@@H](C)O[C@@H](C)C4)cc3C2)c1OC
  i, -13.3%
38	COc1ccc(S(=O)(=O)N2CCC(C(N)=O)(N3CCCCC3)CC2)cc1
  i, -10.2%
39	COc1cccc(NC(=O)c2oc3ccccc3c2NC(=O)c2ccc(C(F)(F)F)cc2)c1
  i, -21.3%
40	CCNC(=O)C1CCCN(c2ncnc3onc(C)c23)C1 (centres undefined)
  0.0%, -13.4%
41	CCc1nn(-c2ccccc2)c2nc(-c3cccc(OC)c3)c3cc(OC)c(OC)cc3c12
  -3.7%, 1.7%
42	COc1cccc(-n2ccnc2SCC(=O)N2CCCc3ccccc32)c1
  -23.7%, -13.6%
43	Cc1oc(C(=O)O)cc1CSCc1ccoc1C(=O)O
  x, -4.2%
44	C=CCN(CC=C)CC(=O)Nc1cccc(Oc2cnccn2)c1
  -5.3%, -22.6%
45	CC(C)N1CCN(Cc2nc3c(s2)CCCC3)CC1CCO (centres undefined)
  i, 1.7%
46	COc1cccc(-c2cc(CNC(=O)[C@H]3O[C@@H](n4cnc5c(N)ncnc54)[C@H](O)[C@@H]3O)no2)c1
  43.9%[activator], -0.2%
47	Cc1cccc(/C=C2/C(=O)/C(=C/c3ccccc3C)C3CCC2N3C)c1 (centres undefined)
  i, 0.0%
48	CCc1c(C)[nH]c2ccccc2c1=O
  x, -7.5%
49	S=C(Nc1ccc(Br)cc1Cl)N1CCCC1
  i, -13.9%
50	CSc1nc2c(c(=O)[nH]1)C(c1ccc(C(F)(F)F)cc1)CC(=O)N2 (centres undefined)
  -4.8%, -3.5%
51	CCOC(=O)c1ccc(N2C(=O)c3[nH]nc(-c4ccc(C)cc4)c3C2c2ccc(O)cc2)cc1 (centres undefined)
  -29.3%, -24.8%
52	O=C(CCCNC(=O)/C(=C/c1ccc(Br)cc1)NC(=O)c1ccccc1)OCc1ccccc1
  -7.3%, 4.1%
53	CC(C)c1ccc(/C=C/C2=NNC(=O)CC2)cc1
  -18.8%, -29.3%
54	COc1ccc([N+](=O)[O-])cc1NC(=O)Cc1noc2ccc(C)cc12
  -1.4%, -2.9%
55	Cc1ccc(NC(=O)COC(=O)Cc2ccsc2)cc1S(=O)(=O)N1CCOCC1
  -12.6%, -6.6%
56	Cc1oc(-c2cccc(Br)c2)nc1CSc1nc2ncccc2[nH]1
  -8.3%, -10.9%
57	COCC(C)n1c(SCC(=O)Nc2ccc3c(c2)OCCO3)nc2ccccc2c1=O (centres undefined)
  -3.9%, -9.0%
58	Cc1cccc(NC(=O)C2CC(=O)OC23CCCCC3)c1 (centres undefined)
  i, -14.1%
59	COCCN(CC(=O)NCC1CCCO1)C(=O)CCC(=O)Nc1cc(C)ccn1 (centres undefined)
  -15.4%, -4.7%
60	Cc1cc(C(F)F)n2nc(C(=O)Nc3cccc(C(F)(F)F)c3)nc2n1
  x, -7.5%
61	CCOc1cccc(Oc2ccc(C(F)(F)F)cn2)c1
  -10.7%, -0.2%
62	CCc1cccc(NC(=O)c2cc(S(=O)(=O)N3CCCCCC3)cn2C)c1
  -3.2%, -3.2%
63	COc1ccc2[nH]cc(CCNc3ncnc4ccc(-c5ccc(C(=O)N(C)C)cc5)cc34)c2c1
  -5.4%, -19.5%
64	O=C(Cn1nc(-c2ccccc2)oc1=O)OCC(=O)c1ccccc1
  -8.6%, -18.2%
65	CC(=O)NS(=O)(=O)c1ccccc1
  -14.9%, -6.3%
66	CCOC(=O)N1CCN(CC(=O)Nc2ccc(Oc3ccccc3)cc2)CC1
  i, -11.0%
67	C=CCN(CC(=O)Nc1c(C)cccc1CC)C(=O)SCCC
  x, -1.8%
68	COC(=O)Cc1c(O)ccn(Cc2ccc3c(c2)OCO3)c1=O
  i, -2.2%
69	COc1ccc(OC(=O)NCCc2ccccc2)cc1
  i, -4.5%
70	CCOc1ccccc1OCc1nn2c(-c3ccc(C)cc3)nnc2s1
  -7.6%, -2.5%
71	Cc1ccc2nc(-c3ccc(C)c(NC(=O)Cc4ccccc4)c3)oc2c1
  -1.1%, -3.6%
72	Cc1nn(C)c(Cl)c1S(=O)(=O)N[C@@H](c1ccccc1)[C@]1(C)C[C@H]1[C@@H](C)C(=O)Nc1ccc2ccccc2c1
  u, u
73	COc1cc(SC)ccc1C(=O)Nc1ccc(C)cc1
  -15.9%, u
74	CCNc1oc(COc2ccccc2F)nc1C#N
  -6.8%, -8.4%
75	Brc1ccccc1-c1nnc(COc2ncnc3ccccc23)o1
  30.7%[activator], 2.2%

# Remaining list, next part:
# Under each structure: VACV mCherry inh, VACV Venus inh
76	CCCCn1c(C23CC4CC(CC(C4)C2)C3)n[nH]c1=S
  i, -7.3%
77	C/C(=N\NC(=O)c1ccc(Cl)cc1)c1ccc2[nH]ccc2c1
  -16.8%, -12.4%
78	CCCOc1ccc(-c2c(C(=O)N/N=C/c3ccccc3)nnn2-c2nonc2N)cc1
  -3.9%, -1.6%
79	COc1cccc(-c2ccc3c(N)c(C(=O)Nc4cc(F)ccc4F)sc3n2)c1
  -11.7%, -15.0%
80	COc1ccc(-n2nc(C(=O)NCC(=O)NCCCN3CCN(C)CC3)c3ccccc3c2=O)cc1
  -13.3%, -12.4%
81	COc1ccc(OC)c(NC(=O)Nc2nc(C(N)c3ccccc3Cl)cs2)c1 (centres undefined)
  5.4%, -29.6%
82	CC(=O)/C(N)=N/Nc1cccc(Cl)c1
  -19.7%, 2.2%
83	O=C(CC1C(=O)NCCN1Cc1ccccc1)NC1CCCCC1 (centres undefined)
  -13.6%, 1.6%
84	O=c1c2c(nc3cc(-c4ccccc4Cl)[nH]n13)CCS2
  i, -12.5%
85	CCN1CCN(Cc2c(OC)ccc3ccccc23)CC1
  -14.4%, -11.5%
86	CCCCn1c(N)c(N(Cc2ccccc2OC)C(=O)c2ccc(N3CCCC3=O)cc2)c(=O)[nH]c1=O
  -16.5%, -1.8%
87	O=C(NCC(c1ccc(F)cc1)N1CCOCC1)c1cc(F)c(F)c(F)c1F (centres undefined)
  -3.3%, -1.9%
88	CN(Cc1cn(Cc2cccc(Cl)c2)nn1)C1CN(Cc2cn(Cc3cccc(Cl)c3)nn2)S(=O)(=O)C1 (centres undefined)
  -13.7%, -7.0%
89	CN(Cc1ccc2nsnc2c1)C(=O)C1CCC(=O)N(CCc2ccccc2)C1 (centres undefined)
  -10.3%, -10.4%
90	CC1=C(C(=O)Nc2cccc(C(F)(F)F)c2)C(c2ccccn2)n2ncnc2N1 (centres undefined)
  4.0%, 4.1%
91	CC(=O)NC1CC2CCCC(C1)N2C(=O)Nc1ccc(Cl)cc1 (centres undefined)
  i, 2.3%
92	C/C=C1\NC(=O)[C@H](CC(N)=O)N(C)C(=O)C([C@@H](C)O)NC(=O)C(CCCc2ccc(OC)cc2)NC(=O)[C@H](C(C)C)NC(=O)/C(=C\C)NC(=O)[C@H](O)[C@@H](C[C@@H](O)CCCCCCC)NC(=O)[C@H](C)NC(=O)CN(C)C(=O)[C@H](CCC(N)=O)NC1=O (some centres undefined)
  u, u
93	O=C1CNC(=S)N1CCOc1ccccc1
  -7.5%, 110.9%[activator]
94	CCCCC[C@H](O)/C=C/[C@@H]1[C@@H](CC(=O)CCCCC(=O)O)[C@@H](O)C[C@H]1O
  -8.1%[3.33 µM], -11.5%[3.33 µM]
95	COc1cc(C(=O)NCc2nnc(SCC(=O)Nc3c(C)cc(C)cc3C)o2)cc(OC)c1OC
  -16.1%, -3.1%
96	Cc1noc(C)c1S(=O)(=O)NCc1ccc2c(c1)OCO2
  -7.3%, -1.8%
97	N[C@@H](CS(=O)O)C(=O)O
  -9.5%, -3.6%&-3.6%
98	O=C(NCC(=O)N1CCN(c2ccccc2O)CC1)c1cccs1
  u, -5.8%
99	Cn1cc(Br)c(C(=O)N2CCc3ccccc32)n1
  -8.2%, -15.6%
100	Cc1ccc(S(=O)(=O)N2CCC(C(=O)Nc3ccncc3)CC2)cc1
  -16.2%, -24.1%
101	CN(Cc1ccccc1)c1ncnc2sccc12
  i, -8.1%
102	COc1ccccc1NS(=O)(=O)c1cccc(NC(=O)NCCCl)c1
  -9.4%, -3.9%

# Rows are unselected. Share with any hit: about 0.82%.
